Six1-Eya2 inh: blocks human Six1 binding to Eya2; Q15475+O00167; AlphaScreen GST-Six1/His-Eya2 binding, biochemical; hits give low values; control for the full effect not named in the record; activity change, % (concentration not given with the values); hit rate 0.56% among 360,000; AID 651725; in the data active = activity change below about -65%; inconclusive = about -30% to -65%; inactive = above about -30%; note: % is set by controls: 0 for no effect and ±100 for the full control effect
Target sequence (O00167 whole entry, looked up): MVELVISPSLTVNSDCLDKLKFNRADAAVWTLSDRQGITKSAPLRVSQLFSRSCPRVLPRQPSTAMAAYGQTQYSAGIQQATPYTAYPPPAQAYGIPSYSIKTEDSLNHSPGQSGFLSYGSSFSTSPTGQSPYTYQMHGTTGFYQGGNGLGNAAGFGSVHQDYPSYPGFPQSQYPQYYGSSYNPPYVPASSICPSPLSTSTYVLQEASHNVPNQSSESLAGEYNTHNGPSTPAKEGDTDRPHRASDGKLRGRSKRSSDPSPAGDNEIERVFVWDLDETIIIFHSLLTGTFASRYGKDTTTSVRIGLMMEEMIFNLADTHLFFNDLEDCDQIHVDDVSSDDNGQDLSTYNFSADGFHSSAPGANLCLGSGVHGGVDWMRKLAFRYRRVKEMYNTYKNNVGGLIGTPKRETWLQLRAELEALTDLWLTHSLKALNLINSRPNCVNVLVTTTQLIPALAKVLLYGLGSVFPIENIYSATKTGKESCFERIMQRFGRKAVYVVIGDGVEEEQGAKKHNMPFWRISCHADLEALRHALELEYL
Target sequence (Q15475 whole entry, looked up): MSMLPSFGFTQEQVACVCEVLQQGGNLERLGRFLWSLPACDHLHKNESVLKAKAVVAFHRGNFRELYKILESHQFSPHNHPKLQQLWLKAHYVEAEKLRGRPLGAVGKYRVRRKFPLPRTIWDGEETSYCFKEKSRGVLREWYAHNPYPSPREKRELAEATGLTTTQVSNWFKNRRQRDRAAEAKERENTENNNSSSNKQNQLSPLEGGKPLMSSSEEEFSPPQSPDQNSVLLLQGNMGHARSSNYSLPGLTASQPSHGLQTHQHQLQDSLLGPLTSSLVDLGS
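Homogeneous AlphaScreen proximity assay pairing GST-Six1 with His-tagged Eya2 (added as 5X mix: 250 nM and 500 nM) in 50 mM Tris pH 8.0, 300 mM NaCl, 1 mM TCEP. Glutathione donor and nickel acceptor beads; 1 h, 37 °C, dark.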
D2 potentiator: human D2 receptor positive allosteric modulation | P14416 | DiscoveRx D2 beta-arrestin cells, luminescence, 90 min; 100% = 57 uM dopamine signal | potentiation, % (concentration not given with the values) | AID 624464 | hit rate 0.23% among 360,000; active = potentiation of 50% or more; inconclusive = 30% to 50%; inactive = 30% or less;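 note: compound concentration not given in the record; tested on top of an EC20 dose of dopamine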
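D2 cells co-treated with compound plus 50 nM dopamine (EC20) for 90 min at 37 deg C to detect potentiation. Beta-arrestin recruitment was read as enzyme-fragment luminescence after 1 h at ambient temperature. Full response was set by 57 uM dopamine.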
TRPML1 ag: human mucolipin-1 channel agonism | Q9GZU1 | hit rate 0.12% among 410,000 | activation, % (test concentration not listed) | TRPML1-expressing cells, Ca2+ dye fluorescence, FDSS; host cell line not named in the record; reference of the full effect not given here; in the data active = activation above about 50%; inconclusive = about 30% to 50%; inactive = below about 30%; note: 0% is about no effect; the text of the record puts the active cut at 80%
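Tet-induced TRPML1-DL cells, 1,500 per well, cultured overnight, were loaded with a no-wash Ca2+ dye for 45–90 min. Calcium fluorescence was recorded on the FDSS for 110 s after compound addition, before the EC80 agonist (4 uM 54-4) was added.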
PINK1 expr mod: changes PINK1 expression. PINK1 immunofluorescence, high-content cytometry, 24 h. Potency, µM (doses to about 76.6 µM), for inactives: at the top dose activation (PINK1 increase), most hits filed as activators. hit rate 0.2% among 410,000; active = well fitted activation curve with a large enough effect; inconclusive = small, poorly fitted or top-dose-only effect; inactive = flat fitted curve, though single readings scatter; cell line not stated here;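 note: potency is the fitted concentration of half-maximal effect; % of control where 0% means no effect; nearly all actives have a fitted effect of over 65% in size; a mitochondrial uncoupler was the plate control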
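Compound titrations (5 concentrations, 24 h) on a stable cell line; DMSO and CCCP controls. Endpoint: fixed-cell PINK1 immunofluorescence with mitochondrial, cell and nuclear markers, scanned by microplate cytometer.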
D2 ag: agonists of human D2 dopamine receptor (beta-arrestin) | P14416 | DiscoveRx PathHunter D2 beta-arrestin, luminescence, 90 min; 100% = 57 uM dopamine signal | activation, % (concentration not given with the values) | hit rate 0.084% among 360,000; in the data active = activation above about 40%; inconclusive = about 15% to 40%; inactive = below about 15%; note: compound concentration not given in the record; the text of the record calls up to 30% inactive
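Agonist mode: compounds alone added to overnight-plated D2 PathHunter cells for 90 min at 37 C, with 57 uM final dopamine (EC100) defining full response. Beta-arrestin recruitment detected by chemiluminescent reagent, read after 1 h at ambient temperature.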
TRPML1 inh: human mucolipin-1 channel inhibition; AID 624415; hit rate 0.02% among 390,000; activity change, negative = inhibition, % (concentration not given with the values); TRPML1-inducible cells, Ca2+ dye fluorescence, FDSS; hits give low values; inhibition of EC80 agonist-evoked calcium signal; in the data active means activity change below about -50%; inconclusive means about -30% to -50%; inactive means above about -30%;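 note: stimulus is agonist 54-4 at its EC80 concentration; % is set by controls: 0 for no effect and ±100 for the full control effect; compound concentration not given in the record; the text of the record puts the active cut at -80%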
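Tet-induced TRPML1-DL cells loaded with Ca8 no-wash calcium dye were read kinetically on FDSS. Compound addition was followed by EC80 agonist 54-4 (4 uM final); inhibition was read over 110 s.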
* marks the source's active call; other numbers are inactive results; ? = inconclusive; nt = no result given; & = joins results of further samples; [ ] = remark or other dose.

Every second line gives: Six1-Eya2 inh	D2 potentiator	TRPML1 ag	PINK1 expr mod	D2 ag	TRPML1 inh
1) Cc1ccc(S(=O)(=O)c2nnn3c2nc(NCc2ccc(F)cc2)c2sccc23)cc1
    nt	nt	0.0	1.7%	nt	-4
2) C/C(=N\OC(=O)c1ccc(C)cc1)c1sc(C)nc1C
    8	-24	1.0	-1.2%	-0.1	23
3) COc1ccc(-n2cc(-c3ccccc3)nc2SCC(=O)Nc2ccccc2C)cc1
    nt	nt	0.5	0.1%	nt	59
4) COc1ccccc1N1CCN(CCCOc2ccc(F)cc2)CC1
    -9	-39	-0.9	-1.2%	1.5	-5
5) CN(CC(=O)Nc1ccc(F)c(F)c1F)C(=O)c1ccc2c(c1)OCCO2
    9	1	0.5	?	-4.6	-2
6) O=C(NCc1ccco1)c1ccc(Cn2c(=O)c3ccccc3n(Cc3ccc(Cl)cc3)c2=O)cc1
    -7	-8	2.9	-0.3%	-2.8	8
7) COc1ccc(CNC(=O)CCC2N=C3c4ccccc4N=C(SCc4ccccc4F)N3C2=O)cc1 (configuration not stated)
    nt	nt	0.8	1.5%	nt	-2
8) CCCN(CCC)CCCNC(=O)Cn1cnc2onc(-c3ccc(F)cc3)c2c1=O
    nt	nt	0.4	-6.1%	nt	9
9) COCCN1C=C2C(=O)C(C)(OC(=O)c3cccs3)C(=O)C=C2C=C1CCCC(=O)OC (configuration not stated)
    6	9	0.1	1.1%	7.0	0
10) Cc1ccc(C2=Nc3ccccc3N=C(c3ccc([N+](=O)[O-])cc3)C2)c(O)c1
    -12	-4	-0.5	11%	2.0	-2
11) CCOC(=O)N1CCN(S(=O)(=O)c2cn(C)c(=O)n(C)c2=O)CC1
    1	-15	0.1	0.1%	-6.6	-13
12) O=C(Nc1cccc(F)c1)Nc1ccccn1
    4	-10	0.3	-21%[38.3 µM]	-3.8	-7
13) O=C(COc1ccccc1)Nc1cccc(S(=O)(=O)N2CCCC2)c1
    -1	-7	1.1	-1.8%	-4.0	-3
14) COC(=O)CSc1c(-c2ccccc2)c2cc(Cl)ccc2[nH]c1=O
    -4	5	2.1	6.4%	1.1	15
15) CCOC(=O)N1CCN(Cc2nc3cc(NC(=O)c4cccs4)ccc3n2CC)CC1
    -8	4	-0.8	4.3%	-1.8	-1
16) COc1ccc(CCn2c(C)cc(C(=O)COC(=O)c3cnccn3)c2C)cc1
    -18	-5	-0.5	0.0%	2.4	-5
17) N#CC(c1ccccc1)c1ccc([N+](=O)[O-])cc1 (configuration not stated)
    -25	-10	-1.4	3.7%	-8.8	nt
18) CCOc1ccc(NC(=O)C2Cc3ccccc3N2C(=O)c2ccccc2)cc1 (configuration not stated)
    nt	nt	3.3	7.2%	nt	16
19) COc1ccccc1-c1nnc(SC(C)C(=O)N2CCOCC2)o1 (configuration not stated)
    4	-7	-0.7	-0.5%	-0.2	12
20) Cc1nc2ncnn2c(C)c1CCC(=O)N1CCc2ccccc21
    25	1	0.6	-1.2%	-1.1	-7

Compounds listed so far containing a Cl atom (two):
Every second line gives: Six1-Eya2 inh	D2 potentiator	TRPML1 ag	PINK1 expr mod	D2 ag	TRPML1 inh
6) O=C(NCc1ccco1)c1ccc(Cn2c(=O)c3ccccc3n(Cc3ccc(Cl)cc3)c2=O)cc1
    -7	-8	2.9	-0.3%	-2.8	8
14) COC(=O)CSc1c(-c2ccccc2)c2cc(Cl)ccc2[nH]c1=O
    -4	5	2.1	6.4%	1.1	15

Additional results.
Every second line gives: Six1-Eya2 inh	D2 potentiator	TRPML1 ag	PINK1 expr mod	D2 ag	TRPML1 inh
21) CCc1ccc(C2CC(c3ccccc3Cl)Nc3nc(N)nn32)cc1 (configuration not stated)
    -8	0	8.1	2.1%	3.4	1
22) CC(C)(NO)/C(=N\O)c1ccc(Cl)cc1
    -2	23	1.2	1.8%	2.9	12
23) CC(C(=O)Nc1cccc(Br)c1)c1ccc([N+](=O)[O-])cc1 (configuration not stated)
    8	-5	2.4	-0.8%	-1.7	19
24) CC(CCN1CCN(c2ccccn2)CC1)c1ccccc1 (configuration not stated)
    0	4	0.4	0.6%	?	23
25) O=C(Cn1nc(-c2ccc(Cl)cc2)ccc1=O)N1CCN(c2ccccc2)CC1
    -25	-27	-0.3	0.6%	-2.5	-4
26) CCN(CC(=O)NC1CCS(=O)(=O)C1)c1nc(-c2cccnc2)nc2ccccc12 (configuration not stated)
    6	3	1.3	11%	2.0	-3
27) O=C(Nc1ccc2c(c1)CCC2)c1ccc(Br)s1
    0	-41	-1.1	0.3%	-6.4	4
28) COc1ccc(O)c(CN2CCN(C/C=C/c3ccccc3)CC2)c1
    -26	-14	2.6	-2.5%[38.3 µM]	-1.8	25
29) CC1CC1C(=O)Nc1ccc(-c2ccccc2)cc1 (configuration not stated)
    -2	-5	1.5	7.0%	6.4	14
30) CCc1ccc(NC(=O)N[C@H](C(=O)O)C(C)CC)cc1 (some centres not stated)
    11	-2	-0.7	0.6%	-1.4	-10
31) O=C(c1ccc2c(c1)OCO2)C1CCCN(C(=O)c2cnn(Cc3ccccc3)c2)C1 (configuration not stated)
    1	-10	0.2	-0.7%	-1.2	2
32) Cc1ccc(CNC(=O)C23CN(Cc4ccccc4)CC2C(c2ccc([N+](=O)[O-])cc2)=NO3)o1 (configuration not stated)
    ?	-7	0.7	0.3%	13	20
33) CCOC(=O)C1C(=O)C=C(C)C(C(=O)OCC)C1c1ccc(OC)cc1 (configuration not stated)
    4	-4	0.9	-1.3%[38.3 µM]	-2.1	-7
34) COc1cccc([C@@H]2Nc3ccc(C(=O)O)cc3[C@@H]3C=CC[C@@H]32)c1OC
    nt	nt	-0.4	-0.3%	nt	-5
35) CC(=O)c1ccc(NC(=O)CSc2ccc3nnc(-c4ccccn4)n3n2)cc1
    -26	-7	-0.3	-0.6%	0.8	49
36) c1ccc(-c2cn3c4c(sc3n2)CCCC4)cc1
    -15&-15	-9&-19	0.8&1.9	3.3%	4.0&0.9	2&4
37) NNC(=O)c1cc(-c2ccccc2)sc1N
    -5	1	1.3	2.8%	5.1	26
38) COc1ccc(C#Cc2ccc3c(=O)c4ccccc4n(C)c3c2)cc1
    24	-13	1.4	7.3%	-4.1	-4
39) COC(=O)c1cccc(-n2nnnc2SCC(=O)Nc2nc3c(s2)CCCC3)c1
    0	-27	2.9	2.8%	-0.9	20
40) CCOC(=O)C1(Cc2cccc(F)c2)CCN(C(=O)COC)CC1
    -2	-10	-0.2	-0.7%	-2.3	16

A draw from above in order of SMILES length, low to high.
Every second line gives: Six1-Eya2 inh	D2 potentiator	TRPML1 ag	PINK1 expr mod	D2 ag	TRPML1 inh
24) CC(CCN1CCN(c2ccccn2)CC1)c1ccccc1 (configuration not stated)
    0	4	0.4	0.6%	?	23
30) CCc1ccc(NC(=O)N[C@H](C(=O)O)C(C)CC)cc1 (some centres not stated)
    11	-2	-0.7	0.6%	-1.4	-10
38) COc1ccc(C#Cc2ccc3c(=O)c4ccccc4n(C)c3c2)cc1
    24	-13	1.4	7.3%	-4.1	-4
23) CC(C(=O)Nc1cccc(Br)c1)c1ccc([N+](=O)[O-])cc1 (configuration not stated)
    8	-5	2.4	-0.8%	-1.7	19

Later entries.
Every second line gives: Six1-Eya2 inh	D2 potentiator	TRPML1 ag	PINK1 expr mod	D2 ag	TRPML1 inh
41) O=C(Nc1ccc2c(c1)CCCN2C(=O)c1ccccc1)c1ccccc1
    5	4	0.8	3.3%	9.3	19
42) O=C(O)c1ccccc1Cc1nc2cc(Cl)ccc2c(=O)[nH]1
    -28	1	0.7	-0.5%	3.8	2
43) O=C(COc1ccc([N+](=O)[O-])cc1)NNC(=S)NC(=O)c1ccc(Br)cc1
    -1	-20	0.0	-0.5%	8.3	9
44) COc1ccc(CCN2CC(C(=O)NCc3cnn(C)c3)CCC2=O)cc1 (configuration not stated)
    0	-4	-0.5	-0.5%	-6.0	-9
45) CCCn1c(=O)c2sccc2n2c(CCCC(=O)N3CCN(c4cccc(Cl)c4)CC3)nnc12
    nt	nt	1.6	0.2%	nt	23
46) C/C(=N\Nc1cccc(C(=O)O)c1)c1ccc(Cl)s1
    -18	1	1.1	4.5%	0.6	21
47) CC1(Cc2ccc3c(c2)OCO3)C(=O)Nc2ccc(-c3cccc(C(F)(F)F)c3)cc21 (configuration not stated)
    11	-5	1.2	-1.1%	-3.9	nt
48) CC(C)c1ccc(C(=O)OC2CCOC2=O)cc1 (configuration not stated)
    17	2	0.5	4.5%	-0.3	-15
49) COc1ccc(Br)cc1C(=O)Nc1cccc(NC(=O)c2ccco2)c1
    -16	-20	1.1	1.2%	-3.0	-4
50) CCN1C(=O)/C(=C\N2CCCc3ccccc32)SC1=S
    0	15	-0.9	8.8%	-3.6	-11
51) CC(=O)NC(Nc1c(C)n(C)n(-c2ccccc2)c1=O)C(Cl)(Cl)Cl (configuration not stated)
    6	-5	3.1	2.1%	-1.2	9
52) CCCCSCCCNC(=O)c1cn(C)c2ccc(S(=O)(=O)N3CCCCC3)cc2c1=O
    nt	nt	1.1	2.7%	nt	-17
53) O=C(/C=C/c1ccco1)Nc1ccc(Cl)c(-c2nc3cc(Cl)ccc3o2)c1
    nt	nt	-0.7	5.7%	nt	-7
54) CC(C)c1ccc(N(CC(=O)NCCCN2CCOCC2)S(=O)(=O)c2ccccc2)cc1
    0	-10	-0.1	-2.3%	-6.1	-13
55) COc1ccc(OC)c(S(=O)(=O)N2CCN(c3ccccc3OC)CC2)c1
    -6	0	0.8	2.0%	2.8	5
56) COc1cccc(OCC(=O)N(C)Cc2nc(-c3ccccc3)no2)c1
    -4	-6	3.9	-2.2%	-3.0	-7
57) CCOc1ccccc1C1C(C(=O)Nc2ccc(OC)cc2)=C(C)Nc2nc(CCCO)nn21 (configuration not stated)
    0	0	0.7	0.2%	-0.8	12
58) CCN(CC)S(=O)(=O)c1ccc(C(=O)NCc2cccs2)cc1
    4	-14	0.1	2.0%	1.0	-11
59) O=S1(=O)N[C@H](Cc2ccccc2)COc2cccc(N3CCC[C@H]3CO)c21
    -2	nt	-0.3	-0.6%	nt	nt
60) CN1CCN(C(CNC(=O)C(=O)Nc2ccc3c(c2)OCO3)c2ccc(F)cc2)CC1 (configuration not stated)
    2	-5	1.2	2.4%	-5.3	18
61) COc1ccc(Cl)cc1N(CC(=O)NCC(C)C)S(=O)(=O)c1ccc(C)c([N+](=O)[O-])c1
    3	-10	0.1	-0.1%	-2.5	-16

High-throughput results as filed in PubChem BioAssay.
